# Assay outcomes deposited in PubChem BioAssay by National Center for Advancing Translational Sciences (NCATS).
# PINK1 modulator = PINK1 expression modulation | Potency, µM (doses to about 76.6 µM), inactives show at the highest dose activation (PINK1 increase), most hits filed as activators | 0.2% of 410,000 active | AID 624263 | PINK1 immunofluorescence, high-content cytometry, 24 h; active = well fitted activation curve with a large enough effect; inconclusive = small, poorly fitted or top-dose-only effect; inactive = flat fitted curve, though single readings scatter; cell line not stated here;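 also: potency is read from the fitted curve at half-maximal effect; % of control where 0% means no effect; nearly all actives have a fitted effect of over 65% in size; a mitochondrial uncoupler was the plate control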
#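 Measures PINK1 amount and localization on or inside mitochondria by immunofluorescence. Stable cells get compounds at 5 concentrations for 24 hours before fixation and staining; CCCP controls included.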
# Sfp PPTase inh = blocks B. subtilis Sfp PPTase activity. Biochemical Sfp PPTase activity, qHTS. Potency, µM, inactives show max response, negative = inhibition, actives largely listed as inhibitors. Q9F4F7. 3.5% of 310,000 active. AID 1490; active = well fitted inhibition curve with a large enough effect; inconclusive = small, poorly fitted or top-dose-only effect, or another doubt; inactive = no such curve, though single readings can be large or run the other way;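 also: the enzyme is Sfp with the accession as filed and its product quenches rhodamine fluorescence; potency is read from the fitted curve at half-maximal effect; 0% = enzyme reaction without inhibitor and -100% = no enzyme wells; top concentration of the series not given in the record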
#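 Fluorescence-quenching assay with 15 nM Sfp, 5 uM rhodamine-CoA and 12.5 uM BHQ-2-labelled ybbR peptide in pH 7.6 Hepes/MgCl2 buffer. Enzyme was pre-incubated with compound for 15 min at room temperature. Rate was taken from the 30-min fluorescence change (525/598 nm).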
# TRPML1 inh = inhibitors of human TRPML1 channel. AID 624415. activity change, negative = inhibition, % (concentration not given with the values). TRPML1-inducible cells, Ca2+ dye fluorescence, FDSS; active compounds read low; inhibition of EC80 agonist-evoked calcium signal. Q9GZU1. 0.02% of 390,000 active; in the data active means activity change below about -50%; inconclusive means about -30% to -50%; inactive means above about -30%;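 also: stimulus is agonist 54-4 at its EC80 concentration; % is scaled to controls: 0 for no effect and ±100 for the full control effect; the text of the record puts the active cut at -80%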
# Target sequence (Q9GZU1 whole entry, looked up): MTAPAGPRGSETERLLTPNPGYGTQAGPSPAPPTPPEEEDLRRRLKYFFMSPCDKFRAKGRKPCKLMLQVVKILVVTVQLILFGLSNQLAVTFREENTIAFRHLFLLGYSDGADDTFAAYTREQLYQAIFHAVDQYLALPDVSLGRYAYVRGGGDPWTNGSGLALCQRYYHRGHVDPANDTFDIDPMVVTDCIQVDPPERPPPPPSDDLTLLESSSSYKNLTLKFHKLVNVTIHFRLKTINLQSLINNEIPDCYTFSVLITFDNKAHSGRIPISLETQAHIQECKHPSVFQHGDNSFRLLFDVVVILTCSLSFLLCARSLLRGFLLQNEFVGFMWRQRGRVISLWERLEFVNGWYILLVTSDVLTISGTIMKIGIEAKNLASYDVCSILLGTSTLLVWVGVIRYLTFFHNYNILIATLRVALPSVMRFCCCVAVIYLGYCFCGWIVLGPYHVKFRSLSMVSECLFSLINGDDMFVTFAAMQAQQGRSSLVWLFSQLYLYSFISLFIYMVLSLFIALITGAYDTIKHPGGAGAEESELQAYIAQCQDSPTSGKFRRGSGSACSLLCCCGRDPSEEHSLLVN
#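 TRPML1-DL cells, Tet-induced overnight (~16 h, 37 °C) at 1,500 cells/well, were loaded with Ca8 no-wash dye plus quencher for 45-90 min at room temperature. Compounds were pinned during FDSS kinetic reading; agonist 54-4 at EC80 (4 uM final) then added.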
# ClpP mod = qHTS Assay for Activators of ClpP. AID 651965, 2013. 1.9% of 340,000 active. purified B. subtilis ClpP, FRET peptide cleavage, 20 min. Potency, µM (top dose mostly 57.5 µM), inactives show top-dose activity change, negative = active; active = well fitted falling curve with a large enough effect; inconclusive = small, poorly fitted or top-dose-only effect; inactive = no such curve, though single readings can be large or run the other way; also: potency is read from the fitted curve at half-maximal effect; the source files actives as falling curves though it sought activators and does not explain the sign; nearly all actives have a fitted effect of over 65% in size; many hits overshoot -100%
# Target sequence (P80244 whole entry, looked up): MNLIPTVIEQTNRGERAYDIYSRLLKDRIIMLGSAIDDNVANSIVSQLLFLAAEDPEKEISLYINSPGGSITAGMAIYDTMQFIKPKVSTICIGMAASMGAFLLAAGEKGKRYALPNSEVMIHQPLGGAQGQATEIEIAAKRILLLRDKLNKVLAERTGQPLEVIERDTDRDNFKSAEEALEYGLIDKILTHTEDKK
#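 FRET quenching reversal measured ClpP activation: 10 microg/mL B. subtilis ClpP at pH 8 with the FRET-FV decapeptide, read at 430 nm after 320 nm excitation. The 20-min minus 0-min signal was scaled between DMSO/no-enzyme wells and ADEP (5.8 microM final).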
# TRPML1 ag = agonists of human TRPML1 channel; Q9GZU1; TRPML1-expressing cells, Ca2+ dye fluorescence, FDSS; host cell line not named in the record; reference of the full effect not given here; activation, % (concentration not given with the values); 0.12% of 410,000 active; in the data active = activation above about 50%; inconclusive = about 30% to 50%; inactive = below about 30%; also: 0% is about no effect; the text of the record puts the active cut at 80%
#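 Calcium fluorescence on an FDSS kinetic reader gave the read-out. Tet-induced TRPML1-DL cells were plated overnight, dye-loaded (Ca8 with quencher, 45-90 min, room temperature, dark), then read 110 s after compound addition, and again 110 s after 4uM final 54-4 (EC80).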
# Menin-MLL FL inh = inhibitors of human menin-MLL interaction, wild-type MLL peptide. FP activity change, % at 61.4 µM. AID 1766. 290,000 tested, under 10 active. Fluorescence polarization, fluorescein-MLL peptide displacement from menin; inconclusive = falling polarisation curve, or a change in total fluorescence; inactive = total fluorescence flat and polarisation flat or rising; no compound was filed as active; the % refers to the polarisation; negative = inhibition;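 also: % of control where 0% means no effect; inhibitors lower the polarisation; unlabelled MLL peptide was the positive control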
# TRPV1 PAM = human TRPV1 potentiation | TRPV1-expressing cells, Fluo-8 calcium influx, capsaicin EC20 potentiation; host cell line not named in the record; control for the full effect not named in the record | 0.02% of 320,000 active | potentiation, % at 8.33 µM | AID 540277 | Q8NER1; active means potentiation above 80%; inconclusive means 30% to 80%; inactive means below 30%; also: 0% is about no effect
#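 Cells expressing TRPV1 were dye-loaded with Fluo-8 and read kinetically: 10 s baseline, 3 min after compound (agonist portion), then 2 min after EC20 capsaicin (allosteric enhancer portion). Calcium-bound dye fluorescence at 480/520 nm.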
# Active calls of the source: *; ? = inconclusive; . = no result given; [ ] = another dose, or the depositor's remark. This is a random part of the collection; overall some 4.4% were active at least once.
SMILES,PINK1 modulator,Sfp PPTase inh,TRPML1 inh,ClpP mod,TRPML1 ag,Menin-MLL FL inh,TRPV1 PAM
O=C(Nc1ccnn1C1CCN(Cc2ccccc2)CC1)C1CCOC1 (configuration not stated),-0.4%,11%,-8,-1.4%,-0.3,.,-39
O=C(OCCOc1cccc(Cl)c1)c1ccc(F)c(S(=O)(=O)N2CCOCC2)c1,5.4%,.,15,0.5%,1.9,.,-37
COC(=O)c1scc(-c2ccc(C)cc2)c1S(=O)(=O)Nc1cc(C)ccc1OC,0.6%,.,47,0.4%,0.8,.,.
O=C(N/N=C/c1ccc(F)cc1)c1sccc1OCc1ccc(F)cc1,2.1%,-30%,5,-1.8%,-0.8,1.8,-9
CN(C(=O)c1ccc(F)c(S(=O)(=O)N2CCOCC2)c1)C1CCCCC1,0.4%,.,2,-1.0%,-0.4,.,-17
CS(=O)(=O)N(CCCC(=O)N1CCCCCC1)c1cccc(Cl)c1,-0.4%,23%,4,1.6%,-0.1,-1.9,4
O=C(NCCCn1ccnc1)/C(=C/c1ccco1)NC(=O)c1ccccc1,-1.6%,.,4,-1.9%,0.0,.,.
COc1ccc(-n2c(-c3ccc(Cl)cc3)c[n+]3c2CCCCC3)cc1,-0.9%,8%,10,2.5%,1.2,3.6,3
CCOC(=O)C1CCCN(C(=O)c2cccc([N+](=O)[O-])c2C)C1 (configuration not stated),0.3%,-4%,-3,.,-0.4,0.3,10
Cc1oc2c(cc(NS(=O)(=O)c3ccc(Cl)cc3)c3ccccc32)c1C(=O)OCc1ccccc1,0.6%,.,-24,-1.0%,-1.0,.,.
CCN(CC)S(=O)(=O)c1ccc(Cl)c(NC(=O)CCCCl)c1,0.8%,?,23,.,1.3,1.2,?
COc1ccccc1-c1nnc(SCC(=O)Nc2cccnc2Cl)n1C,2.1%,.,6,0.0%,-0.5,.,.
COc1cc(OC)cc(C(=O)N=c2sc3ccccc3n2C)c1,13%,-33%,3,3.8%,0.5,-1.1,11
Cc1ccc2[nH]c(CSc3nnc(NC(=O)COc4ccc(F)cc4)s3)cc(=O)c2c1,1.0%,.,5,-4.6%,1.4,.,.
CCOc1ccc2nc(N3C(=O)C(O)=C(C(=O)c4ccco4)C3c3ccco3)sc2c1 (configuration not stated),-1.2%,.,29,-1.6%,1.1,.,-7
COc1ccc(CN(C(=O)c2snc(C(N)=O)c2N)C(C(=O)NC2CCCC2)c2ccco2)cc1 (configuration not stated),4.1%,11%,6,.,0.6,-2.3,29
CCN(CC)C(=O)c1sc2nc(-c3cccs3)cc(-c3ccc(Cl)cc3)c2c1N,-0.2%,79µM*,-7,?,11,14,3
S=C(c1ccc(-c2cc(Cl)ccc2Cl)o1)N1CCCCC1,13%,16µM*,29,0.7%,4.0,-3.1,-1
COCC(=O)OCc1cc2cccc(C)c2[nH]c1=O,0.3%,11%,-27,.,0.4,0.3,0
CC1CCCCN1C(=O)Cn1cc(C(=O)c2ccco2)c2ccccc21 (configuration not stated),1.1%,18%,4,-1.2%,-0.8,-1.2,0
COc1ccc(C(=O)NCc2cc3ccccc3n2C)cc1,0.0%,-4%,-15,-9.4%,-1.1,-2.1,4
CCCC12CN(C(=O)c3ccco3)CC(CCC)(CN(C(=O)c3ccco3)C1)C2=O,-0.2%,-5%,15,-3.4%,-0.1,-2.0,-17
C#CCOCCOCCOCCNc1nc(N2CCN(C(=O)CCCCCCCCCCNC(=O)[C@H](CO)n3cc(CCCSC)nn3)CC2)nc(N2CCN(C(=O)CCCCCCCCCCNC(=O)[C@H](CO)n3cc(CCCSC)nn3)CC2)n1,2.2%,.,-11,-0.2%,0.9,.,23
O=C(CN1C(=O)C2C3C=CC(C3)C2C1=O)NCC1COc2ccccc2O1 (configuration not stated),-1.5%,2%,-2,-2.2%,-0.9,0.9,-11
CCC(C)NC(=O)C1c2ccccc2C(=O)N1Cc1cc(OC)ccc1OC (configuration not stated),-0.1%[38.3 µM],10%,1,-2.1%,-0.3,-0.2,26

# 6 successive compounds already listed, quoted:
SMILES,PINK1 modulator,Sfp PPTase inh,TRPML1 inh,ClpP mod,TRPML1 ag,Menin-MLL FL inh,TRPV1 PAM
S=C(c1ccc(-c2cc(Cl)ccc2Cl)o1)N1CCCCC1,13%,16µM*,29,0.7%,4.0,-3.1,-1
COCC(=O)OCc1cc2cccc(C)c2[nH]c1=O,0.3%,11%,-27,.,0.4,0.3,0
CC1CCCCN1C(=O)Cn1cc(C(=O)c2ccco2)c2ccccc21 (configuration not stated),1.1%,18%,4,-1.2%,-0.8,-1.2,0
COc1ccc(C(=O)NCc2cc3ccccc3n2C)cc1,0.0%,-4%,-15,-9.4%,-1.1,-2.1,4
CCCC12CN(C(=O)c3ccco3)CC(CCC)(CN(C(=O)c3ccco3)C1)C2=O,-0.2%,-5%,15,-3.4%,-0.1,-2.0,-17
C#CCOCCOCCOCCNc1nc(N2CCN(C(=O)CCCCCCCCCCNC(=O)[C@H](CO)n3cc(CCCSC)nn3)CC2)nc(N2CCN(C(=O)CCCCCCCCCCNC(=O)[C@H](CO)n3cc(CCCSC)nn3)CC2)n1,2.2%,.,-11,-0.2%,0.9,.,23

# Next compounds
SMILES,PINK1 modulator,Sfp PPTase inh,TRPML1 inh,ClpP mod,TRPML1 ag,Menin-MLL FL inh,TRPV1 PAM
CCOc1cc(C)c(S(=O)(=O)Nc2ccc(F)cc2)cc1C,14%[38.3 µM],12%,7,-0.1%,0.8,1.2,-8
CCC(C)(C)N=C(NC#N)Nc1cccnc1,.,-8%,.,.,.,?,6
O=C(CC1CCCCC1)NCc1ccc(F)cc1,0.0%,16%,51,-0.6%,0.1,3.6,-31
COc1ccc2oc(=O)c(C(=O)N3CCc4ccccc43)cc2c1,-0.7%,4%,20,-1.7%,0.9,2.9,-10
O=C(NCCc1ccccc1)C1CCN(S(=O)(=O)c2cccc3nsnc23)CC1,0.6%,5%,-2,-1.6%,0.3,3.9,11
CCOC(=O)c1c(CSc2ccc(C)cc2)oc2ccc(O)cc12,-0.7%,3%,-16,-2.3%,3.2,4.8,-6
CCOC(=O)C(Cc1ccccc1)C(=O)Nc1ccccc1C (configuration not stated),0.2%,8%,-1,0.4%,1.4,2.4,15
CCOC(=O)Cn1c(=O)oc2cc(S(=O)(=O)N3CCN(C(=O)c4ccco4)CC3)ccc21,16%,6%,6,0.2%,0.7,22,9
O=C(c1ccc(-c2ccccc2)cc1)N1CCN(Cc2ccccn2)CC1,0.3%,10%,17,-3.0%,-0.1,-1.4,-17
CCOC(=O)Cc1c(C)nc2cc(-c3ccc(Cl)cc3)[nH]n2c1=O,0.6%,19%,12,28µM*,3.4,-0.5,-3
Cc1cccc2sc(NC(=O)Cn3c(C)csc3=O)nc12,0.5%,.,17,-4.0%,0.0,.,-9
COc1cccc(NC(=O)N2CCCCCC2)c1,0.2%,-4%,4,1.2%,-0.6,2.2,-17
CC1(C)CC(N2CCOCC2)=CC(=S)N1,2.6%,.,.,-1.5%,0.4,.,.
COC(=O)c1ccc(NC(=O)c2cccc3c2C(=O)N(C2CCCCC2)C3)cc1,0.7%,.,6,-3.8%,-0.7,.,.
C=CCn1c(NCc2cc(C)ccc2O)nc2ccccc21,13%,-3%,1,-1.2%,0.3,0.9,10
CSc1ccc(C2Nc3ccccc3-c3cc(C)nn32)cc1 (configuration not stated),1.1%,4%,-7,?,-0.4,-0.9,2
O=C(CSCC(=O)NC1CCCC1)Nc1ccccc1,3.0%,0%,53,4.2%,-0.1,.,17
O=C(O)CC(C(=O)Nc1ccc(Cl)cc1)N1CCCCCC1 (configuration not stated),-0.9%,-6%,-2,.,0.0,-1.2,-19
Cc1nc2ncnn2c(C)c1CCC(=O)Oc1ccccc1,1.2%,22%,2,-0.8%,-0.2,3.2,2
CCCOc1ccc(CNC(=O)Cn2ncn3c(cc4sc(CC)cc43)c2=O)cc1,0.8%,.,2,-1.0%,0.3,.,.
Cc1cccc(OCC(=O)NNC(=O)Cn2c(=O)cnc3ccccc32)c1,2.2%,.,13,2.3%,-0.8,.,1
Cc1cc(C)cc(NC(=S)N2CCC(N(C)CC3CCCO3)CC2)c1 (configuration not stated),-1.6%,9%,1,.,-0.2,-3.2,0
Cc1ccc(CN(C)C(=O)CC2C(=O)NCCN2CC2CCCCC2)cc1 (configuration not stated),-1.3%,-4%,8,.,0.2,1.5,-3
Cc1c(NC(=S)N/N=C/c2cc([N+](=O)[O-])ccc2O)c(=O)n(-c2ccccc2)n1C,2.5%,-19%,-7,3.0%,0.5,16,.
C=CCOc1ccc(C2NC(=O)c3ccccc3O2)cc1OCC (configuration not stated),-0.2%,17%,9,2.4%,0.4,-1.5,?

# (cont.)
SMILES,PINK1 modulator,Sfp PPTase inh,TRPML1 inh,ClpP mod,TRPML1 ag,Menin-MLL FL inh,TRPV1 PAM
C=CCN(CC=C)S(=O)(=O)c1ccc(C(=O)Nc2nnc(COC)o2)cc1,1.0%,11%,-9,-3.4%,0.9,3.9,2
CCN1CCN(C(CNS(=O)(=O)c2ccccc2)c2cccnc2)CC1 (configuration not stated),0.9%,7%,-9,1.0%,-0.3,.,-1
CCOC(=O)C1CCCN(C(=O)c2ccc3c(c2)sc2nc(-c4cccc(OC)c4)cn23)C1 (configuration not stated),-0.6%,.,-12,-22%,3.3,.,.
C=CCNc1nnnc2c1sc1nc(N3CCOCC3)c3c(c12)CCCC3,15%,4%,5,.,-0.8,2.6,1
C/C(=N/Nc1ccc(F)cc1)c1ccc(Cl)s1,-0.3%,-15%,29,1.1%,1.8,2.2,7
C[C@H]1CN([C@@H](C)CO)C(=O)CCCn2cc(nn2)CO[C@@H]1CN(C)C(=O)Nc1cccc(F)c1,1.3%,.,0,2.2%,-0.5,.,.
O=C(CCSc1ccc(Cl)cc1)N1CCN(c2ccc(O)cc2)CC1,0.8%,79µM*,10,.,-0.2,0.3,-8
COc1ccc(NC(=O)C(=O)c2cc(C)n(-c3ccc(C)cc3)c2C)cc1Cl,0.0%,.,-27,-4.2%,?,.,.
C#CCOC(=O)c1ccc(-n2cncn2)nc1,-0.8%,7%,-6,-2.1%,1.8,2.5,-1
Cc1cccc(N(CC(=O)N2CCCC2)S(=O)(=O)c2ccccc2)c1,-2.0%,19%,-14,0.0%,0.8,2.4,.
Cc1ccc(C)c(N2CCN(S(=O)(=O)c3ccc(F)c(C(=O)Nc4ccc(Cl)cc4Cl)c3)CC2)c1,-0.6%,.,3,1.5%,0.5,.,.
